High-throughput results: PubChem BioAssay, National Center for Advancing Translational Sciences (NCATS)
TSHR agonist: activates the human thyroid stimulating hormone receptor; HEK293-CNG-TSHR cells (CNG channel as cAMP sensor), membrane potential dye, cAMP; Potency, µM (titrated, usually from 57.1 µM), inactives show at the highest dose activation, most hits filed as activators; 73,000 compounds, 0.48% hits; AID 926; active = well fitted activation curve of enough size with the parental cells flat; inconclusive = any curve in the parental cells; inactive = parental cells flat and receptor cells flat or falling; also: potency is read from the fitted curve at half-maximal effect; % of control where 0% means no effect; weak receptor curves with flat parental cells got no call and are not listed
Target sequence (P16473 whole entry, looked up): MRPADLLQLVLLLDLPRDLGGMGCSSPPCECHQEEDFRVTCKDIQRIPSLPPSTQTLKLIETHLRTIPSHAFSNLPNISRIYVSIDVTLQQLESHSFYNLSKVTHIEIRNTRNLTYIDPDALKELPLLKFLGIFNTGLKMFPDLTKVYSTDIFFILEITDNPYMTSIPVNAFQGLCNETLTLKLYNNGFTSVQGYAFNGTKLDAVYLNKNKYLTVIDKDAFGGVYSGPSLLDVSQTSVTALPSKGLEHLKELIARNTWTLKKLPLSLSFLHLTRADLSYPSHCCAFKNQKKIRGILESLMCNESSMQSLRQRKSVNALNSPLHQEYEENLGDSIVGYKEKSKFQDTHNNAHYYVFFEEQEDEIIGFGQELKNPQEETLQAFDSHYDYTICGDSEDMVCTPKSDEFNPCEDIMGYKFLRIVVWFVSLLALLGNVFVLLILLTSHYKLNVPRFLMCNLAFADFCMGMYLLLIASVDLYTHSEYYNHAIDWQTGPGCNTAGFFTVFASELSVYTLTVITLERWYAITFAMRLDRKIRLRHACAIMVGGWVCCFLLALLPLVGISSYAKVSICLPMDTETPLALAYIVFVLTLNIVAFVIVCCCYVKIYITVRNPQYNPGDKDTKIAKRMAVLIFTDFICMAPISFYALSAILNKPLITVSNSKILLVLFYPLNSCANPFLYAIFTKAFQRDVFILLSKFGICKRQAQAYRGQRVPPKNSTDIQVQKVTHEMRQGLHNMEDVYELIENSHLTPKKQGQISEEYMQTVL
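HEK 293 cells stably expressing TSHR and a modified CNG channel, with CNG-only parental cells as counterscreen, were preloaded 60 min at room temperature with membrane potential dye containing 100 uM RO 20-1724. Compound exposure was 30 min, and depolarization was read as fluorescence at 590 nm.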
Resorufin autofl: compounds fluorescent in resorufin spectral region | Compound fluorescence, resorufin region 547/598 nm, buffer; stronger effect = higher value | max dye-equivalent concentration, M | 59,000 compounds, 0.04% hits; active = above 10 nM dye equivalent; inconclusive = 1 to 10 nM; inactive = 1 nM or less; a few of its hits are not listed in these tables; also: highest value over a series up to 38 µM
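Read-out: intrinsic compound fluorescence at ex 547/em 598 nm after 15 min at RT in pH 8.0 Tris (100 mM). Values expressed as resorufin-equivalent concentration from per-plate standard series.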
AID923: qHTS Assay for Allosteric/Competitive Inhibitors of Caspase-1: Spectroscopic Profiling in AFC Spectral Region | Potency, µM (titrated, usually from 57.5 µM), for inactives: at the top dose fluorescence increase, usual class: activators | AID 923, 2007 | 75,000 compounds, 1.1% hits | compound fluorescence, AFC spectral region (405/520 nm); almost no hit is shown here; active = well fitted activation curve with a large enough effect; inconclusive = small, poorly fitted or top-dose-only effect;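 also: potency is read from the fitted curve at half-maximal effect; 0% is about no effect; scaled to a free AFC standard on each plate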
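Baseline compound fluorescence (AFC region, 405 nm ex/520 nm em) taken from the intercept of kinetic reads with 50 nM caspase-1 and 5 uM Ac-WEHD-AFC; normalized to an on-plate AFC standard curve; compounds titrated up to 57 uM.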
A647 fluor: compound autofluorescence in A647 spectral region | Compound fluorescence, A647 channel (570/671 nm), Tris buffer | max dye-equivalent concentration, M | 59,000 tested, under 10 active; active means above 1 µM dye equivalent; inconclusive means 0.1 to 1 µM; inactive means 0.1 µM or less;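 also: values scaled relative to a standard on each plate; highest value over a series up to 38 µM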
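Spectral profiling of library compounds in pH 8.0 Tris: 15 min room-temperature incubation, single ex/em pair (570/671 nm), response normalized to Alexa 647 equivalents.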
A488 fluor: compound autofluorescence in A488 spectral region; 59,000 compounds, 0.1% hits; compound autofluorescence, A488 spectral region, dye equivalency; stronger effect = higher value; max dye equivalency, M; active = above 10 nM dye equivalent; inconclusive = 1 to 10 nM; inactive = 1 nM or less; about half of its hits are not listed in these tables;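 also: highest value over a series up to 38 µM; compound alone in buffer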
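Read-out: relative fluorescence at 480/540 nm, expressed as Alexa 488 dye-equivalent concentration from a six-point A488 standard included per plate. Conditions: 100 mM Tris, pH 8.0; 15 min incubation, room temperature.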
Starred values were filed as active, the others as inactive; i = inactive; ? = inconclusive; nt = not tested or not shown; [ ] = remark or other dose. Some of the compounds tested; rates above refer to the full screens.

SMILES	TSHR agonist	Resorufin autofl	AID923	A647 fluor	A488 fluor
Cc1ccc2[nH]c(=O)c(CN(Cc3ccc4c(c3)OCO4)Cc3nnnn3C3CCCC3)cc2c1	?	i	4.2%	2.1e-08	i
CCS(=O)(=O)NCCCCc1ccccc1	1%	i	-2.0%	9.4e-09	i
CNc1nc(SC)nc(N2CCOCC2)n1	-4%	i	-0.2%	1.3e-08	i
Cc1cc(C(=O)Nc2cccnc2)no1	2%	i	-1.3%	1.5e-09	i
CC(C)C(=O)N(c1ccc(F)cc1)C1C=CS(=O)(=O)C1 (configuration not stated)	nt	i	-1.3%	1e-09	i
CCOc1cc(C)c(C(C)C)cc1S(=O)(=O)n1ccc(C)n1	nt	i	-0.7%	7.4e-08	i
O=C(Nc1ncnc2sc3c(c12)CCCCC3)c1ccco1	?	i	-1.0%	3.5e-09	i
CCOc1ccc(CCNC(=O)C2CCCN(c3nn4c(=O)cc(C)nc4s3)C2)cc1 (configuration not stated)	12%[11.4 µM]	i	-0.6%	1e-09	i
COCCN(CC(=O)NC1CCCCC1)C(=O)CSc1nc2ccccc2o1	?	i	-0.5%	1e-09	i
CCOC(=O)C(NC(=O)CC)(Nc1sc2c(c1C(=O)OC)CCN(C)C2)C(F)(F)F (configuration not stated)	-5%	i	12%	9.7e-09	i
CC1CN(c2nc3ccccc3nc2C(C#N)C(=O)NC2CCCCC2)CC(C)O1 (configuration not stated)	19%	i	10.0%	1e-09	1.4e-08M*
CCOC(=O)N1CCN(c2c(NCC3CCN(Cc4cccc(C)c4)CC3)c(=O)c2=O)CC1	2%	nt	-1.9%	nt	nt
CC(Oc1ccc(Cl)cc1Cl)C(=O)Nc1ncccn1 (configuration not stated)	-14%	nt	-1.0%	nt	nt
COc1ccc(-n2nnnc2Sc2ccc(S(=O)(=O)N3CCOCC3)cn2)cc1	0%	i	-1.4%	1e-09	i
O=C(O)CCC/C=C\C[C@@H]1CO[C@H](C(F)(F)F)O[C@@H]1c1ccccc1O	4%	nt	-2.4%	nt	nt
CCNc1nc(OCCNS(=O)(=O)c2cc(C)ccc2C)nc(N(C)C)n1	8%	nt	2.1%	nt	nt
Cc1cc(NC(=O)CSc2nc3ccccc3c(=O)n2Cc2ccccc2)no1	13%	i	-0.4%	1e-09	i
Cc1ccc(-c2noc(-c3ccccc3C(=O)N3CCN(C)CC3)n2)cc1	20%	i	-1.6%	6.5e-09	i
CCOC(=O)c1ccc(NC(=O)c2cccc(S(=O)(=O)N3CCOCC3)c2)cc1	11%	nt	3.1%	nt	nt
O=C(Nc1ncccn1)c1cccs1	5%	i	-0.3%	4.6e-08	i

In the list so far, these have fluorine.
SMILES	TSHR agonist	Resorufin autofl	AID923	A647 fluor	A488 fluor
CC(C)C(=O)N(c1ccc(F)cc1)C1C=CS(=O)(=O)C1 (configuration not stated)	nt	i	-1.3%	1e-09	i
CCOC(=O)C(NC(=O)CC)(Nc1sc2c(c1C(=O)OC)CCN(C)C2)C(F)(F)F (configuration not stated)	-5%	i	12%	9.7e-09	i
O=C(O)CCC/C=C\C[C@@H]1CO[C@H](C(F)(F)F)O[C@@H]1c1ccccc1O	4%	nt	-2.4%	nt	nt

(listing goes on)
SMILES	TSHR agonist	Resorufin autofl	AID923	A647 fluor	A488 fluor
CC1(C)CC(CC(=O)Nc2ccccn2)C(=O)O1 (configuration not stated)	2%	i	2.5%	1e-09	i
O=C(CCc1nc(-c2ccccc2F)no1)NCCN1CCc2ccccc2C1	11%	i	-0.3%	2.3e-08	i
COCCNc1nc(-c2cccc(NS(C)(=O)=O)c2)nc2ccccc12	19%	i	-1.4%	1e-09	i
O=c1c(CCc2ccccc2)nc2cncnc2n1Cc1ccccc1	5%	i	4.8%	2.7e-08	i
CCN(CC)CCCNC(=O)c1sc2nc(-c3ccc(F)cc3)cn2c1C	10%	i	0.8%	6.5e-09	i
Cc1ccnc(SCCn2c(Br)nc3c2c(=O)[nH]c(=O)n3C)n1	-4%	i	-0.1%	1e-09	i
CC(=NCc1ccc2c(c1)OCO2)C1=C(O)c2ccccc2C1=O	44%	i	3.3%	2.9e-08	i
O=C(Nc1ccc2nn(-c3ccccc3)nc2c1)c1cccnc1	7%	i	1.3%	1e-09	i
CC(C)CC(c1nnnn1C1CCCC1)N1CCN(c2ccccc2F)CC1 (configuration not stated)	?	i	-0.8%	2.8e-08	i
CCC(=O)c1ccc(OCC(=O)N2CCc3cc(OC)c(OC)cc3C2)cc1	11%	i	-0.1%	5.8e-09	i
Cc1csc(NC(=O)C2CCC(C)(C(=O)O)C2(C)C)n1 (configuration not stated)	4%[11.4 µM]	i	-0.1%	1e-08	i
COC(=O)CNC(=O)C1(C)C=CC2(CCCCC2)N1C(C)=O (configuration not stated)	7%	nt	0.7%	nt	nt
CC(=O)NC12CC3CC(C1)CC(C(=O)OCC(=O)Nc1ncc(Cl)cc1Cl)(C3)C2	-6%	i	3.3%	1e-09	i
COc1ccc(C2=NOC(C(=O)NCc3ccc(F)cc3)C2)cc1 (configuration not stated)	21%	i	-1.5%	3.3e-09	i
CN(C)CCN(Cc1ccc(Cl)cc1)c1ccccn1	nt	i	-3.0%[25.7 µM]	1.3e-08	i
CCOC(=O)C1CCN(S(=O)(=O)c2c(C)n(C)c(=O)n(C)c2=O)CC1	17%	nt	-1.2%	nt	nt
Cn1cccc1Cc1nnc(SCC(=O)NCc2ccccc2Cl)n1-c1ccc(F)cc1	2%	nt	-1.9%	nt	nt
CCOc1ccc2c(c1)c1nnc(SCC3CCCO3)nc1n2C (configuration not stated)	4%	i	-1.0%	1e-09	i
Cc1cccc(NC(=O)CN2C(=O)COc3ccc(Cl)cc32)c1	15%	i	0.0%	2.3e-08	i
O=C(CSc1cccc2cccnc12)N1CCCC1	nt	i	-1.1%	6.9e-09	i
CCOc1ccc(-c2cc(NC(=O)Cn3ncc4c3-c3ccccc3OC4)on2)cc1OCC	-5%	nt	1.1%	nt	nt
Cc1ccc(C)c(C(=O)CSc2nnnn2-c2cccnc2)c1	8%	i	-3.3%	2.7e-08	i
CO[C@H]1C[C@@H](O[C@@H]2[C@H](C)[C@H](O[C@@H]3O[C@@H](C)C[C@@H](N(C)C)[C@@H]3O)[C@H](C)C[C@]3(CO3)C(=O)[C@H](C)[C@H](O)[C@H](C)[C@H](C)OC(=O)[C@@H]2C)O[C@@H](C)[C@H]1O	-14%[25.6 µM]	i	2.1%[25.7 µM]	3.9e-09	i
Cc1ccc2nc(Cc3ccc(N)cc3)oc2c1	0%	i	0.1%	2e-09	i
CN(C)c1nc2ccccc2c(N)c1-c1ccccc1	?	i	-0.5%	4.5e-08	i
COC(=O)c1[nH]c2ccccc2c1NC(=O)CN1CCCCCC1	10%	i	1.0%	1e-09	i
Cc1cc(SCC(=O)N2CCCC2)nc2ccccc12	16%	i	0.8%	1.3e-08	i
COC(=O)c1ccc(C2NC(C(=O)O)CS2)cc1 (configuration not stated)	nt	i	nt	8e-08	i
N#Cc1nc(Cc2cccc3ccccc23)oc1NCc1ccc(F)cc1	23%	i	-1.7%	8e-09	i
N#Cc1nc(-c2cccs2)oc1NCc1ccc2c(c1)OCO2	nt	i	nt	7.3e-09	i
Cc1cccnc1NC(=O)c1c(O)c2cccc3c2n(c1=O)CCC3	-21%	i	-1.6%	1.3e-08	i
CC1CCN(CCCNC(=O)C2CCN(S(=O)(=O)N3CCCCC3)CC2)CC1	-7%	i	0.8%	1e-09	i
Cc1cc(C)n2nc(SCC(=O)c3cc(C)n(-c4cc(C)on4)c3C)nc2n1	?	i	-1.4%	3.9e-09	i
COc1ccc(-n2nc(C(=O)NCC(=O)NCC3CCCO3)c3ccccc3c2=O)c(OC)c1 (configuration not stated)	-6%	i	1.6%	2e-08	i
CCOC(=O)C1CCN(S(=O)(=O)c2cc(Br)cc3c2N(C(C)=O)C(C)C3)CC1 (configuration not stated)	19%[11.4 µM]	i	-0.3%	5.9e-09	i
O=c1cc(-c2c(F)c(F)c(F)c(F)c2F)oc2c(F)c(F)c(F)c(F)c12	-1%[11.4 µM]	i	0.1%	1e-09	i
COc1ccc(C(=O)c2no[n+]([O-])c2C(=O)c2ccc(OC)cc2)cc1	2%	i	4.3%	2.8e-08	i
COCCN(C(=O)c1csnn1)C(C(=O)NC(C)(C)C)c1cccc(OC)c1 (configuration not stated)	5%	i	-0.2%	2.1e-08	i
O=C(c1ccco1)N1CCN(C(c2cccs2)c2sc3ncnn3c2O)CC1 (configuration not stated)	-20%	nt	-5.3%	nt	nt
COc1ccccc1N1CCN(CCNC(=O)Nc2cccc(C)c2C)CC1	8%	i	-0.2%	8.8e-09	i
O/N=C1\CCC\C1=C/c1ccco1	5%	i	10%	3.5e-08	i
COc1ccc(NC(=O)C(NS(=O)(=O)c2ccc3c(c2)CCCN3C(C)=O)C(C)C)c(OC)c1 (configuration not stated)	-9%	i	0.7%	1e-09	i
O=C1c2ccccc2C(Cc2ccnc(F)c2)(Cc2ccnc(F)c2)c2ccccc21	?	nt	0.9%	nt	nt
COc1ccc(C(=O)Nc2ccccc2)cc1S(=O)(=O)Nc1cc(C)on1	-3%	i	-1.5%	3.6e-09	i
Cc1ccc(S(=O)(=O)NCCOCCNS(=O)(=O)c2ccc(C)cc2)cc1	8%	i	-0.6%	1.1e-08	i
Cn1c(COc2ccc(Cl)cc2)nnc1SCC(=O)NC1CCCCC1	1%	i	0.7%	2.4e-09	i
Cn1cc(C(=O)c2ccc(F)cc2)cc1-c1nc2ccccc2n1C	?	i	-2.2%	1.1e-08	i
COC(=O)c1cc2c(=O)n3cccc(C)c3nc2n(Cc2cccnc2)c1=N	nt	i	nt	3.7e-08	i
Cc1cc(C)n(-c2nc(-c3cccc(Cl)c3)cs2)n1	13%[11.4 µM]	nt	-1.2%	nt	nt
O=C1CN(C(=O)CC2c3ccccc3-c3ccccc32)CC(=O)N1	nt	i	-0.4%	2.7e-09	i
Cc1cc(C)nc(N(C#N)Cc2ccccc2Cl)n1	27%	nt	0.6%	nt	nt
CCCCCCn1c(NCC)nc2c1c(=O)n(C)c(=O)n2C	?	i	2.1%	1e-09	i
Cc1cc(C)nc(SCCc2ccncc2)n1	2%	i	0.6%	1e-09	i
CCNCC(O)COCC(O)CNCC (configuration not stated)	6%	i	1.7%	1e-09	i
O=S(=O)(CCN1CCN(C(c2ccccc2)c2ccccc2)CC1)C(F)(F)F	-2%	i	-1.2%	1e-09	i
Cc1ccc(N2C(=O)c3n[nH]c(C)c3C2c2ccco2)cc1 (configuration not stated)	?	i	0.5%	4.3e-09	i
COc1ccc(NC(=O)N(CCN2CCCC2)Cc2cc3cc(OC)c(OC)cc3[nH]c2=O)cc1	?	i	5.4%	4.1e-09	i
COC(=O)c1ccc(C(NC(=O)OCc2ccccc2)/C(=C/[C@@H](C)C(=O)NCC2CC2)c2cccnc2)cc1 (some centres not stated)	19%	nt	-0.3%	nt	nt
c1cc(-n2cnnn2)ccc1NC1=NCCC1	2%	i	0.2%	3e-08	i

Sorted by formula weight (falling): part of the list above
SMILES	TSHR agonist	Resorufin autofl	AID923	A647 fluor	A488 fluor
COC(=O)c1ccc(C(NC(=O)OCc2ccccc2)/C(=C/[C@@H](C)C(=O)NCC2CC2)c2cccnc2)cc1 (some centres not stated)	19%	nt	-0.3%	nt	nt
O=S(=O)(CCN1CCN(C(c2ccccc2)c2ccccc2)CC1)C(F)(F)F	-2%	i	-1.2%	1e-09	i
CCCCCCn1c(NCC)nc2c1c(=O)n(C)c(=O)n2C	?	i	2.1%	1e-09	i
Cc1ccc(N2C(=O)c3n[nH]c(C)c3C2c2ccco2)cc1 (configuration not stated)	?	i	0.5%	4.3e-09	i
Cc1cc(C)nc(N(C#N)Cc2ccccc2Cl)n1	27%	nt	0.6%	nt	nt
O/N=C1\CCC\C1=C/c1ccco1	5%	i	10%	3.5e-08	i
